SARS PLP yeast = inhibitors of SARS-CoV papain-like protease in yeast; S. cerevisiae expressing SARS-CoV PLpro, growth rescue; control for the full effect not named in the record; Potency, µM (highest dose often 32.9 µM), for the others: at the highest dose activity, positive = growth rescue; hit rate 0.19% among 330,000; AID 485353; active means well fitted rising curve with a large enough effect; inconclusive means small, poorly fitted or top-dose-only effect; inactive means no such curve, though single readings can be large or run the other way; note: 0% is about no effect; nearly all actives have a fitted effect of over 55% in size; growth read by luminescence after 48 h
RE007 growth inh = less growth of the S. pombe RE007 Vpr strain | Potency, µM (titrated, usually from 92.2 µM), for inactives: at the top dose activity change, negative = less growth | AID 651644 | S. pombe RE007 Vpr strain, BacTiter-Glo ATP luminescence, 24 h; control for the full effect not named in the record | hit rate 0.21% among 360,000; active = well fitted falling curve with a large enough effect; inconclusive = small, poorly fitted or top-dose-only effect; inactive = no such curve, though single readings can be large or run the other way;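 note: % is set by controls: 0 for no effect and ±100 for the full control effect; nearly all actives have a fitted effect of over 50% in size; the assay follows cell death caused by Vpr and the record does not say whether a fall means rescue or toxicity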
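Fission yeast RE007 carrying one integrated HIV-1 vpr copy, seeded at OD 0.01 in PMG+AL medium with 23 nL pinned compound. Grown 24 h at 30 degrees; viability read by BacTiter-Glo luminescence after 5 min.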
Cruzain inh Det = inhibitors of Trypanosoma cruzi cruzain with detergent; purified cruzain, Z-FR-AMC fluorescence, 0.01% Triton; P25779; Potency, µM, without a hit: max response, negative = inhibition, usual class: inhibitors; hit rate 0.43% among 200,000;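 note: plate controls were neutral wells for no effect and buffer without enzyme for full effect; nearly all actives have a fitted effect of over 40% in size; top concentration of the series not given in the record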
Target sequence (P25779 123-467 limits assumed): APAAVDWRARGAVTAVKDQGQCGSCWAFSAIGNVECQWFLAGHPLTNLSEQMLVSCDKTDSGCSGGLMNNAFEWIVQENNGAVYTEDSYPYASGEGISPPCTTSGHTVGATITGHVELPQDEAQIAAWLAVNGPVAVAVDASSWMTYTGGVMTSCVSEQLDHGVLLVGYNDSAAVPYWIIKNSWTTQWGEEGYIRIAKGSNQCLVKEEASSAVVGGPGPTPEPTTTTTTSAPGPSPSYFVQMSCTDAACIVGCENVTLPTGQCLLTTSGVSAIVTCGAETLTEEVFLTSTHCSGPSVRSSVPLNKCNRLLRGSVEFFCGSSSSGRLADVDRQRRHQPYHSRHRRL
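Cysteine protease activity tested under reducing, mildly acidic conditions (100 mM sodium acetate pH 5.5, 5 mM DTT) plus 0.01% Triton X-100. Cruzain 1.5 nM; substrate Z-FR-AMC 2 uM; 15 min compound preincubation at room temperature.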
2A StopGo = lowers the luciferase signal of an FMDV 2A StopGo reporter | human cells with a luciferase reporter of 2A StopGo recoding; control for the full effect not named in the record | Potency, µM (titrated, usually from 57.9 µM), for inactives: at the top dose signal change, negative = less light | hit rate 1.2% among 410,000; active = well fitted falling curve with a large enough effect; inconclusive = small, poorly fitted or top-dose-only effect; inactive = no such curve, though single readings can be large or run the other way; tested in HEK293T cells; note: % is set by controls: 0 for no effect and ±100 for the full control effect; nearly all actives have a fitted effect of over 45% in size; luciferase light after 4 h
MARV entry inh = Marburg virus entry inhibition. Marburg virus pseudotyped entry inhibition, cell reporter; control for the full effect not named in the record; about a third of the inactives were read at about 46 µM. Potency, µM (titrated, usually from 37.8 µM), for the others: at the top dose activity change, negative = inhibition, usual class: inhibitors. hit rate 1.8% among 300,000; active = well fitted inhibition curve with a large enough effect; inconclusive = small, poorly fitted or top-dose-only effect, or effect the other way; inactive = flat fitted curve, though single readings scatter; tested in HEK293 cells; about a fifth of its hits are not listed in these tables; note: % is set by controls: 0 for no effect and ±100 for the full control effect; luciferase read-out
Cruzain inh noDet = blocks cruzain activity in detergent-free assay. P25779. purified cruzain, Z-FR-AMC fluorescence, no detergent. Potency, µM, without a hit: max response, negative = inhibition, actives largely listed as inhibitors. hit rate 2.3% among 200,000;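 note: plate controls were enzyme without inhibitor for no effect and buffer without enzyme for full effect; nearly all actives have a fitted effect of over 40% in size; top concentration of the series not given in the record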
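Purified cruzain at 1.5 nM, pre-incubated 15 min with compound at room temperature in 100 mM sodium acetate pH 5.5, 5 mM DTT, 0.00005% Triton X-100. Reaction started with 2 uM Z-FR-AMC; AMC fluorescence increase over 60 s gives rate.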
NS1 function inh = inhibitors of influenza NS1 protein function; S. cerevisiae slowed by influenza A NS1, growth recovery by OD600; Potency, µM (doses to about 46.1 µM), for inactives: top-dose activity, positive = more growth; hit rate 0.4% among 270,000; AID 2326; active means well fitted rising curve with a large enough effect; inconclusive means small, poorly fitted or top-dose-only effect; inactive means no such curve, though single readings can be large or run the other way; note: nearly all actives have a fitted effect of over 50% in size
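OD600 was taken as the measure of yeast growth restored by compound in an NS1-expressing S. cerevisiae strain. Cells had been washed out of glucose medium and diluted 1:100 into galactose -URA medium, pH 6.0.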
LASV entry inh = Lassa virus entry inhibition. Potency, µM (highest dose often 37.9 µM), for inactives: at the top dose activity change, negative = inhibition, hits mostly inhibitors. AID 540256. Lassa virus pseudotype entry inhibition, cell reporter; control for the full effect not named in the record. hit rate 1.2% among 300,000; active means well fitted inhibition curve with a large enough effect; inconclusive means small, poorly fitted or top-dose-only effect, or effect the other way; inactive means flat fitted curve, though single readings scatter; tested in HEK293 cells; note: % is set by controls: 0 for no effect and ±100 for the full control effect; nearly all actives have a fitted effect of over 50% in size; luciferase read-out
* marks the source's active call; other numbers are inactive results; ? = inconclusive; . = no result given; & = joins results of further samples; [ ] = dose if it differs, or a comment. Unless noted, calls come from the whole dose curve; as a rule, active = well fitted curve in the direction sought with a large enough effect; inconclusive = small, poorly fitted or top-dose-only effect, or another doubt; inactive = no such curve, though single readings can be large; an effect the other way counts as inactive or inconclusive. Potency is the fitted concentration of half-maximal effect. Compounds as they come; 4.6% or so of the library scored in one or more.

1) Cc1ccc2[nH]c(=O)c(COC(=O)c3ccccn3)cc2c1
2) Cc1ccc(N(CC(=O)NC2CCCC2)C(=O)CNC(=O)c2cccs2)cc1C
3) Cc1cnc(NC(=O)c2ccc(-c3nc4ccccc4s3)o2)s1
4) Cc1cc2sc(NC(=O)c3ccco3)nc2cc1Cl
5) Cc1cccc(/C=C2\Sc3ccc(C(=O)N4CCCCC4)cc3N(C)C2=O)c1
6) CC1(C)NC(=O)N(CCCSc2ccc(Cl)cc2)C1=O
7) CN1CCc2cc3c(c4c2C1CC41CCC(=NO)CC1)OCO3 (stereo not drawn)
8) Cc1cc(Br)c(NC(=O)C(C)Sc2nnnn2C)c(Br)c1 (stereo not drawn)

screen / no.	1	2	3	4	5	6	7	8
SARS PLP yeast	-1%	-1%	1%	1%	-1%	-5%	1%	5%
LASV entry inh	7%	-6%	-3%	?	.	-11%	-2%	4%
RE007 growth inh	6%	-17%	-12%	8%	-4%	-8%	-4%	-1%
2A StopGo	-21%	10%	-3%	8%	-30%	-21%	-13%	-19%
NS1 function inh	-19%	8%	-12%	0%	-56%	1%	?	.
Cruzain inh noDet	-11%	.	26%	.	.	15%	-1%	.
MARV entry inh	?	-1%	16%&-2%	?	.	7%	-17%	16%
Cruzain inh Det	-0.4%	.	-2.2%	.	.	0.7%	1.2%	.

9) O=S(=O)(NCC(c1ccccc1)N1CCC(O)CC1)c1ccc(Cl)cc1 (stereo not drawn)
10) Cc1ccc(C(C(=O)NC(C)(C)C)N(Cc2cccs2)C(=O)c2ccc3c(c2)OCCO3)cc1 (stereo not drawn)
11) Cc1ccc(S(=O)(=O)NCC(=O)NCC(=O)NC(C)c2ccccc2Br)cc1C (stereo not drawn)
12) Cc1ccccc1-n1nc2c(c1NC(=O)/C=C\c1ccc3c(c1)OCO3)CSC2
13) OCCC1CN(Cc2cccn2-c2cccnc2)CCN1CCc1ccccc1 (stereo not drawn)
14) CCCCNC(=S)NNC(=O)c1ccncc1
15) NC(=O)c1ccc(-n2nnnc2SCC(=O)c2ccc(O)c(O)c2)cc1
16) CSc1nc2ncc3c(n2n1)CC(C)(C)CC3=O

screen / no.	9	10	11	12	13	14	15	16
SARS PLP yeast	-1%	-50%	-4%	-25%	0%	0%	6%	2%
LASV entry inh	.	?	-15%	-13%	-21%[46.1 µM]	25%[46.1 µM]	14%	-12%
RE007 growth inh	5%	2%	-4%	-15%	4%	0%	-12%	-2%
2A StopGo	-11%	0%	-30%	-30%	1%	32%[activator]	-15%	-13%
NS1 function inh	-11%	-5%	6%	20%	1%	.	.	-1%
Cruzain inh noDet	.	12%	.	?	.	.	.	.
MARV entry inh	.	?	-18%[46.1 µM]	-18%	3%[46.1 µM]	-1%[46.1 µM]	10%[46.1 µM]	4%[46.1 µM]
Cruzain inh Det	.	-4.3%	.	?	.	.	.	.

17) CCOc1ccc(CCNC(=O)CN2C(=O)NC3(CCc4ccccc43)C2=O)cc1OCC (stereo not drawn)
18) CCOC(=O)c1c(C)[nH]c(N=Nc2cc(C(=O)O)cc(C(=O)O)c2)c1C
19) Cc1ccc2c(c1)-c1cc(C)nn1C(c1ccc3c(c1)OCO3)N2 (stereo not drawn)
20) CCc1c(C)nc(N2CCN(c3ccc(OC)cc3)CC2)[nH]c1=O
21) O=C(COC(=O)c1ccco1)Nc1nc2ccc([N+](=O)[O-])cc2s1
22) Cc1ccc(S(=O)(=O)c2nc(-c3ccco3)oc2SCC(N)=O)cc1
23) Cc1ccccc1CN1C(=O)c2ccccc2Sc2ccc(C(=O)NCCCN3CCOCC3)cc21
24) COc1ccc(CCNC(=O)c2cc(S(=O)(=O)N3CCOCC3)cn2C)cc1OC

screen / no.	17	18	19	20	21	22	23	24
SARS PLP yeast	-4%	0%	-19%	-2%	-1%	-1%	12%	6%
LASV entry inh	8%	-2%	-4%	.	.	18%[46.1 µM]	?	.
RE007 growth inh	2%	13%	-2%	-3%	11%	8%	0%	2%
2A StopGo	-16%	-1%	20%	-14%	-24%	13%	?	0%
NS1 function inh	.	12%	-52%	14%	8%	-8%	-30%	7%
Cruzain inh noDet	.	.	-6%	.	.	.	-4%	.
MARV entry inh	11%	-12%[46.1 µM]	7%	.	.	2%[46.1 µM]	.	.
Cruzain inh Det	.	.	-7.7%	.	.	.	3.8%	.

25) CCOc1ccc(CCNC(=O)c2nn(-c3ccc(OC)cc3)c(=O)c3c2c2ccccc2n3C)cc1OCC
26) CCc1cc2c(cc3c(=O)n(CC(=O)NCCc4ccccc4)ncn32)s1
27) CCCCN1C(=O)/C(=C(/C#N)C(=O)N2CCCC2)c2ccccc21
28) COc1ccc(CC(=O)Nc2nc(C)cs2)cc1
29) Cc1ccc(C2N(c3nccs3)C(=O)C3CCCN32)cc1 (stereo not drawn)
30) Cc1nc(C)c(C(=O)N/N=C/c2ccco2)s1
31) Cc1ccc(NC(=O)C[n+]2cc(-c3ccccc3)n3c2CCC3)c(C)c1
32) C/C(=N\N1CCN(c2ccccc2)CC1)c1ccco1

screen / no.	25	26	27	28	29	30	31	32
SARS PLP yeast	.	.	3%	0%	2%	2%	1%	-1%
LASV entry inh	0%[46.1 µM]	.	.	-4%	-2%	21%[46.1 µM]	0%[46.1 µM]	1%
RE007 growth inh	.	.	-8%	0%	?	-4%	-4%	2%
2A StopGo	-23%	5%	-16%	41%[activator]	11%	-9%	-5%	39%[activator]
NS1 function inh	.	.	3%	.	-4%	3%	-3%	-12%
Cruzain inh noDet	-3%	-4%	.	.	-6%	.	.	-4%
MARV entry inh	6%[46.1 µM]	2%[46.1 µM]	.	?	-8%	-1%[46.1 µM]	-9%[46.1 µM]	?
Cruzain inh Det	-1.2%	0.4%	.	.	-0.7%	.	.	-2.1%

33) Cc1ccc(NC(=O)c2cc(S(=O)(=O)NC3CCCCCC3)ccc2F)cc1F
34) Cc1cccc(NC(=S)NN2CCN(C)CC2)c1
35) Cc1ccc(Cc2c(C)[nH]c(=S)[nH]c2=O)cc1
36) N[C@@H](CO)c1nnc([C@H](CCC(=O)O)NC(=O)C2CCNCC2)o1
37) N#Cc1c(NC(=O)CSc2ncnc3sccc23)oc(-c2ccco2)c1-c1ccco1
38) COC(=O)c1cc(Cl)c(NC(=O)c2cc(OC)c(OC)c(OC)c2)cc1OC
39) COc1cc(Cl)c(C)cc1NC(=O)CSc1nnc(CCC(=O)O)c(=O)[nH]1
40) CN1C(=S)SC(C)(C)C1NO (stereo not drawn)

screen / no.	33	34	35	36	37	38	39	40
SARS PLP yeast	.	0%	2%	0%	0%	-1%	0%	5%
LASV entry inh	-19%[46.1 µM]	15%	17%	.	-3%	-18%	2%[46.1 µM]	15%
RE007 growth inh	.	12%	3%	13%	18%	-3%	16%	6%
2A StopGo	-2%	0%	-16%	2%	4%	-13%	-22%	-2%
NS1 function inh	.	8%	-3%	4%	4%	15%	.	?
Cruzain inh noDet	4%	5%	.	.	25µM*	10%	.	-3%
MARV entry inh	.	0%	-9%	.	2%	-20%	0%[46.1 µM]	4%
Cruzain inh Det	-5.0%	5.9%	.	.	-12%	-1.6%	.	2.1%

Compound profiles, as listed above. Values in the order: SARS PLP yeast | LASV entry inh | RE007 growth inh | 2A StopGo | NS1 function inh | Cruzain inh noDet | MARV entry inh | Cruzain inh Det
CN1C(=S)SC(C)(C)C1NO (stereo not drawn) as listed: 5% | 15% | 6% | -2% | ? | -3% | 4% | 2.1%
N#Cc1c(NC(=O)CSc2ncnc3sccc23)oc(-c2ccco2)c1-c1ccco1 as listed: 0% | -3% | 18% | 4% | 4% | 25µM* | 2% | -12%
Cc1ccc(NC(=O)c2cc(S(=O)(=O)NC3CCCCCC3)ccc2F)cc1F as listed: . | -19%[46.1 µM] | . | -2% | . | 4% | . | -5.0%
COc1cc(Cl)c(C)cc1NC(=O)CSc1nnc(CCC(=O)O)c(=O)[nH]1 as listed: 0% | 2%[46.1 µM] | 16% | -22% | . | . | 0%[46.1 µM] | .

Carrying on.
41) O=C(CP(=O)(c1ccccc1)c1ccccc1)Nn1cnnc1
42) COc1ccnc(N2CCN(c3cccc(C(F)(F)F)c3)CC2)c1C#N
43) CCN(CC)c1ccc(S(=O)(=O)N2CCOCC2)cc1NC(=O)CN1CCN(Cc2ccccc2)CC1
44) CCOc1ccc(N(C(C)C(=O)NN=C2CCCCCCC2)S(C)(=O)=O)cc1 (stereo not drawn)
45) COCCn1c(SCC(=O)NNC(=O)c2ccccc2)nc2ccccc2c1=O
46) CC(CCc1ccccc1)NC(=O)CNC(=O)N1CC(=O)Nc2ccccc21 (stereo not drawn)
47) N#C/C(=C\c1ccc(F)c(F)c1)C(=O)NC1CCCCC1
48) Cc1ccc(-c2cc(-c3c(C)nn(C)c(=O)c3N)[nH]n2)cc1
49) CC1=C(C(=O)Nc2ccc(C)cc2C)C(c2cccc(Cl)c2)n2nc(C(=O)OC(C)C)nc2N1 (stereo not drawn)
50) O=C(O)CCN(Cc1ccccc1)S(=O)(=O)c1ccc(Cl)cc1F

screen / no.	41	42	43	44	45	46	47	48	49	50
SARS PLP yeast	-12%	-2%	0%	1%	-3%	4%	-11%	-1%	6%	1%
LASV entry inh	-4%	?	.	6%	17%	19%[46.1 µM]	-1%	.	-14%	8%[46.1 µM]
RE007 growth inh	8%	3%	-14%	9%	-6%	10%	.	18%	-3%	-8%
2A StopGo	0%	.	-18%	-14%	-17%	3%	-29%	41%[activator]	-29%	7%
NS1 function inh	-9%	-53%	-3%	-2%	-8%	12%	-2%	5%	2%	5%
Cruzain inh noDet	2%	-1%	.	5%	-1%	.	5%	.	-7%	.
MARV entry inh	-2%	-10%	.	-3%	?	8%[46.1 µM]	?	.	6%	-2%[46.1 µM]
Cruzain inh Det	5.0%	3.7%	.	-2.9%	-0.6%	.	2.1%	.	-0.9%	.

Source: PubChem BioAssay (National Center for Advancing Translational Sciences (NCATS))
